Screens as filed in PubChem BioAssay.
Rango dissoc inh = inhibitors of RanGTP-induced Rango-importin beta complex dissociation | Biochemical FRET Rango-importin beta, RanGTP-induced dissociation | 340,000 compounds, 0.071% hits | O95149+P62826 | Potency, µM (highest dose often 46.1 µM), without a hit: at the highest dose activity change, negative = inhibition; active means falling FRET ratio curve, often poorly fitted, with flat reads before Ran was added; inconclusive means other falling curves, or compound fluorescence or quenching; inactive means flat or rising ratio curve;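 further: potency means the concentration at half of the fitted maximal effect; % of control where 0% means no effect; nearly all actives have a fitted effect of over 45% in size; -100% = wells without RanGTP and RCC1; the record marks most hits as doubtful in a second field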
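Recombinant Rango FRET biosensor (EYFP–snurportin 1 IBB–cerulean CFP10) at 0.1 uM premixed with 0.25 uM importin beta in PBS, 1 mM DTT, 0.02% Tween-20, 0.1% BSA. Compound added 5 min; RanGTP-RCC1 (0.6 uM Ran, 2 mM GTP, 0.2 uM RCC1) then triggers release, read at 45 min.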
GLA inh pH 4.5 = inhibitors of human alpha-galactosidase A at pH 4.5 | activity change, negative = inhibition, % at 105 µM | P06280 | AID 1467 | 230,000 tested, under 10 active | purified enzyme, 4-MU-alpha-Gal fluorescence, pH 4.5; inconclusive = small, poorly fitted or top-dose-only inhibition, or a rising curve; inactive = flat fitted curve, though single readings scatter; no compound was filed as active;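 further: 0% = full activity with enzyme and -100% = basal without enzyme; dose as in the result columns while the protocol names 77 µM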
Target sequence (P06280 whole entry, looked up): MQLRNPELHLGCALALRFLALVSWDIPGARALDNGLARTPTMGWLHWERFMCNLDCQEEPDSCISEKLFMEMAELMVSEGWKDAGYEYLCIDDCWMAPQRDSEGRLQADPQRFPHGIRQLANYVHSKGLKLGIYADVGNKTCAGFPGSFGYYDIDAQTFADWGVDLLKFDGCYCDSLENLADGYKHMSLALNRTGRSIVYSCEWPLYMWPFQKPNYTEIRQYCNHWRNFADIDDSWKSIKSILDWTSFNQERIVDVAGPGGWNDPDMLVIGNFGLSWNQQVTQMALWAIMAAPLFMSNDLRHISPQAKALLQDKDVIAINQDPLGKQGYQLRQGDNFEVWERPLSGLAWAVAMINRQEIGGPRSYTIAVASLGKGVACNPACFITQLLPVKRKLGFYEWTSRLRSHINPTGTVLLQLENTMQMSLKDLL
miR-21 FLuc = miR-21 reporter, rising signal | HeLa miR-21 FLuc reporter, luciferase, 48 h | Potency, µM (top dose mostly 38.3 µM), for the others: at the top dose reporter change, positive = more light | 340,000 tested, under 10 active | AID 2288; active = well fitted rising curve with a large enough effect; inconclusive = small, poorly fitted or top-dose-only effect; inactive = no such curve, though single readings can be large or run the other way;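 further: % of control where 0% means no effect; miR-21 action dims this reporter so a rising signal means less miR-21 action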
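HeLa miR-21-FLuc reporter line, endogenous miR-21; 2000 cells/well in DMEM/10% FBS; compound titration up to ~40uM final, 48 h, 37 degree Celsius; luciferase detection reagent, 15 min lysis, CCD luminescence.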
Rango-impB inh = Rango-importin beta binding inhibition; Q14974; Rango CFP/YFP FRET sensor + importin beta, 45 min; Potency, µM (highest dose often 92.2 µM), for inactives: top-dose inhibition of complex formation; 340,000 compounds, 0.031% hits; active = rising FRET ratio curve, often small or poorly fitted; inconclusive = mostly compound fluorescence or quenching in the first reads; inactive = flat curves in all reads;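 further: potency means the concentration at half of the fitted maximal effect; 0% = DMSO wells and 100% = buffer wells lacking importin beta; nearly all actives have a fitted effect of over 15% in size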
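FRET biosensor (snurportin 1 IBB flanked by EYFP and cerulean), 50 nM, with compound 5 min, then 0.125 microM importin beta in PBS, 1 mM DTT, 0.02% Tween-20, 0.1% BSA. CFP/YFP ratio read after 45 min at room temperature; pre-read flags interference.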
Starred values were filed as active, the others as inactive; & = joins results of further samples. A portion of the library. The share of hits here may be higher or lower than overall.

What do the screens show for `CN(C)/C=C(\C(=O)c1ccc(F)cc1F)c1nnnn1-c1ccccc1`?
Rango dissoc inh: 6%; GLA inh pH 4.5: 4; miR-21 FLuc: 1%; Rango-impB inh: -0.1%

What do the screens show for `Cc1cc(C)c(NC(=O)CNC(=O)CN(C)Cc2ccc(Br)s2)c(C)c1`?
Rango dissoc inh: -12%; Rango-impB inh: -2.8%

Results for CN1C(=O)C2(c3ccccc31)C1CCCC=C1C(C#N)=C(N)C2(C#N)C#N (centres undefined) ?
Rango dissoc inh: inconclusive; GLA inh pH 4.5: -25; miR-21 FLuc: 3%; Rango-impB inh: inconclusive

How did Cc1cc(NS(=O)(=O)c2c(C)c(C)cc(C)c2C)no1 do in these assays?
Rango dissoc inh: -13%; miR-21 FLuc: -6%; Rango-impB inh: 2.8%

How did Fc1ccc(OCCCCCN2CCCC2)cc1 do in these assays?
Rango dissoc inh: -5%; GLA inh pH 4.5: -3; miR-21 FLuc: -7%; Rango-impB inh: -3.4%

How did O=C(COC(=O)c1ccc(O)cc1)Nc1ccc(S(=O)(=O)N2CCOCC2)cc1 do in these assays?
Rango dissoc inh: -7%; Rango-impB inh: -0.3%

What do the screens show for `COc1ccccc1C(=O)NCC(=O)OCC(=O)Nc1nnc(-c2ccccc2)o1`?
Rango dissoc inh: 6%; Rango-impB inh: -3.6%

How did C=C1c2cc(OC)ccc2NC(=O)N1CC do in these assays?
Rango dissoc inh: inconclusive; GLA inh pH 4.5: 7; miR-21 FLuc: -5%; Rango-impB inh: inconclusive

How did O=C(NNc1nc(N2CCCC2)nc(N2CCCC2)n1)c1ccccc1 do in these assays?
Rango dissoc inh: 20%; Rango-impB inh: -2.2%

What do the screens show for `Cc1nc2scc(-c3ccccc3)c2c(=O)n1N`?
Rango dissoc inh: 9%; GLA inh pH 4.5: 2; miR-21 FLuc: -1%; Rango-impB inh: -0.8%

How did O=C1C(Cc2ccc(O)cc2)NC(=S)N1C1CCCCC1 (centres undefined) do in these assays?
Rango dissoc inh: -8%; GLA inh pH 4.5: -2; miR-21 FLuc: 4%; Rango-impB inh: 2.4%

Results for COc1ccc(CCN2C(=O)CC(NNC(=O)c3ccccc3Br)C2=O)cc1OC (centres undefined) ?
Rango dissoc inh: 0%; GLA inh pH 4.5: -6; miR-21 FLuc: -5%; Rango-impB inh: 4.1%

What do the screens show for `Cn1ccnc1SCC(=O)Nc1ccc(Oc2ccccc2)cc1`?
Rango dissoc inh: -1%; GLA inh pH 4.5: 11; miR-21 FLuc: -16%; Rango-impB inh: 1.4%

Results for CN(C)S(=O)(=O)N1CCN(S(=O)(=O)c2ccc3ccccc3c2)CC1 ?
Rango dissoc inh: -6%; GLA inh pH 4.5: -2; miR-21 FLuc: 0%; Rango-impB inh: 0.3%

Results for Cc1nn(-c2ccc(F)cc2)c(Cl)c1/C=N/NC(=O)c1cccs1 ?
Rango dissoc inh: -3%; GLA inh pH 4.5: -2; miR-21 FLuc: -68%; Rango-impB inh: -2.7%

The final five compounds of the part before come first, to join the parts.
How did O=C1C(Cc2ccc(O)cc2)NC(=S)N1C1CCCCC1 (centres undefined) do in these assays?
Rango dissoc inh: -8%; GLA inh pH 4.5: -2; miR-21 FLuc: 4%; Rango-impB inh: 2.4%

Results for COc1ccc(CCN2C(=O)CC(NNC(=O)c3ccccc3Br)C2=O)cc1OC (centres undefined) ?
Rango dissoc inh: 0%; GLA inh pH 4.5: -6; miR-21 FLuc: -5%; Rango-impB inh: 4.1%

What do the screens show for `Cn1ccnc1SCC(=O)Nc1ccc(Oc2ccccc2)cc1`?
Rango dissoc inh: -1%; GLA inh pH 4.5: 11; miR-21 FLuc: -16%; Rango-impB inh: 1.4%

Results for CN(C)S(=O)(=O)N1CCN(S(=O)(=O)c2ccc3ccccc3c2)CC1 ?
Rango dissoc inh: -6%; GLA inh pH 4.5: -2; miR-21 FLuc: 0%; Rango-impB inh: 0.3%

Results for Cc1nn(-c2ccc(F)cc2)c(Cl)c1/C=N/NC(=O)c1cccs1 ?
Rango dissoc inh: -3%; GLA inh pH 4.5: -2; miR-21 FLuc: -68%; Rango-impB inh: -2.7%

What do the screens show for `Cc1ccc(OCCC(=O)OCC(=O)c2ccc3c(c2)NC(=O)CO3)cc1`?
Rango dissoc inh: -11%; Rango-impB inh: 0.1%

What do the screens show for `C1=Nc2ccccc2CN1c1ccccc1`?
Rango dissoc inh: -1%; GLA inh pH 4.5: 7; miR-21 FLuc: -73%; Rango-impB inh: 11%

Results for CCOCCCn1c(SCc2ccccc2)nnc1-c1ccncc1 ?
Rango dissoc inh: 21%; miR-21 FLuc: 4%; Rango-impB inh: 7.0%

How did C=CCn1c(COc2ccccc2)nnc1SCc1ccc(C#N)cc1 do in these assays?
Rango dissoc inh: 0%; GLA inh pH 4.5: 2; miR-21 FLuc: -9%; Rango-impB inh: 0.1%

What do the screens show for `Cc1ccc(C)c(CN2CCNC2=O)c1`?
Rango dissoc inh: -9%; GLA inh pH 4.5: 0; miR-21 FLuc: -3%; Rango-impB inh: -5.7%

What do the screens show for `Cc1ccc(CNC(=O)CCC(=O)N2CC(C)Sc3ccccc32)cc1` (centres undefined)?
Rango dissoc inh: 10%; miR-21 FLuc: -2%&-1%; Rango-impB inh: 1.0%

How did CC1(C)Cc2c(cnn2-c2ccc(F)cc2)C(NC(=O)CCN2CCCCO2)C1 (centres undefined) do in these assays?
Rango dissoc inh: 3%; miR-21 FLuc: -4%; Rango-impB inh: 2.0%

How did C/C(CC(=O)Nc1ccc(N(C)C)cc1)=N\NC(=O)c1ccc(F)cc1 do in these assays?
Rango dissoc inh: 14%; miR-21 FLuc: -44%; Rango-impB inh: 1.3%

What do the screens show for `CC(C)Oc1ccc(C(=O)Nc2nnc(SCC(=O)N3CCOCC3)s2)cc1`?
Rango dissoc inh: -4%; GLA inh pH 4.5: -1; miR-21 FLuc: 16%; Rango-impB inh: -0.1%

How did COc1ccc(CNC(=O)[C@@H]2CCCN2C(=O)[C@@H]2Cc3ccccc3CN2C(=O)OC(C)(C)C)cc1 do in these assays?
Rango dissoc inh: 0%; miR-21 FLuc: -1%; Rango-impB inh: -1.9%

Results for Cc1ccccc1N(C)C(=O)C1CCCN(c2ncnc3c2nc2n3CCCCC2)C1 (centres undefined) ?
Rango dissoc inh: -2%; miR-21 FLuc: -7%; Rango-impB inh: 0.9%

What do the screens show for `CCOC(=O)c1ccccc1NC(=O)Cn1cnc2c(cnn2C(C)(C)C)c1=O`?
Rango dissoc inh: 1%; GLA inh pH 4.5: 0; miR-21 FLuc: -5%; Rango-impB inh: -0.2%

Results for O=C(Nc1cccc(C(F)(F)F)c1)OCc1ccncc1 ?
Rango dissoc inh: 18%; Rango-impB inh: 0.9%

How did CC(Oc1ccccc1)C(=O)Nc1cccc(NC(=O)c2ccco2)c1 (centres undefined) do in these assays?
Rango dissoc inh: 33%; GLA inh pH 4.5: -3; miR-21 FLuc: -4%; Rango-impB inh: 2.1%

How did CC(=NNC(=S)N1CC2CCC(CC2)C1)c1cnccn1 do in these assays?
Rango dissoc inh: 5%; Rango-impB inh: 4.1%

How did CSc1ccc(S(=O)(=O)NCc2ccccc2C)cc1 do in these assays?
Rango dissoc inh: -5%; GLA inh pH 4.5: 2; miR-21 FLuc: -6%; Rango-impB inh: 1.3%

Results for CC1CCN(Cc2nc(-c3ccccc3)no2)CC1 ?
Rango dissoc inh: -4%; GLA inh pH 4.5: -1; miR-21 FLuc: -39%; Rango-impB inh: 4.6%

What do the screens show for `COc1cc(/C=C/c2cc(C(=O)O)c3ccccc3n2)cc(OC)c1O`?
Rango dissoc inh: 15%; GLA inh pH 4.5: 0; miR-21 FLuc: 9%; Rango-impB inh: 2.1%

How did CCN(CC)S(=O)(=O)c1cccc(N=Nc2sc(N)nc2C)c1 do in these assays?
Rango dissoc inh: 9%; miR-21 FLuc: -19%; Rango-impB inh: -1.6%

Results for COc1cccc(NC(=O)c2ccc3c(c2)C(=O)N(CC2CCCO2)C3=O)c1 (centres undefined) ?
Rango dissoc inh: 4%; miR-21 FLuc: 2%; Rango-impB inh: 0.5%

Results for CC(NC(=O)Nc1cccc([N+](=O)[O-])c1)c1ccc2c(c1)OCO2 (centres undefined) ?
Rango dissoc inh: -21%; miR-21 FLuc: 4%; Rango-impB inh: -1.4%

Results for COc1ccc(NC2CCCN(C(=O)C3=NN(C)C(=O)CC3)C2)cc1OC (centres undefined) ?
Rango dissoc inh: 10%; miR-21 FLuc: -1%; Rango-impB inh: 2.4%

Results for O=S(=O)(NCC1CC1)c1cccc(S(=O)(=O)N2CCCC2)c1 ?
Rango dissoc inh: 7%; GLA inh pH 4.5: -13; miR-21 FLuc: -5%; Rango-impB inh: -1.5%

What do the screens show for `CCc1nc2nc(C)c(NS(=O)(=O)c3ccc(F)cc3)c(=O)n2[nH]1`?
Rango dissoc inh: 2%; miR-21 FLuc: -1%; Rango-impB inh: 1.1%

What do the screens show for `O=[N+]([O-])c1ccccc1S(=O)(=O)N(CC(O)CN1CCCCC1)c1ccccc1` (centres undefined)?
Rango dissoc inh: 0%; miR-21 FLuc: -5%; Rango-impB inh: -1.1%

How did Cc1cc(NC(=O)CSc2nc3c(c(=O)n(C)c(=O)n3C)n2C(C)C)no1 do in these assays?
Rango dissoc inh: 0%; GLA inh pH 4.5: 3; miR-21 FLuc: -1%; Rango-impB inh: -6.1%

What do the screens show for `CS(=O)(=O)c1ccc2nc(NC(=O)c3cc4ccccc4o3)sc2c1`?
Rango dissoc inh: 7%; GLA inh pH 4.5: -15; miR-21 FLuc: -29%; Rango-impB inh: 0.1%

What do the screens show for `Cc1cc2oc(=O)cc(CN3CCN(S(=O)(=O)/C=C/c4ccccc4)CC3)c2cc1C`?
Rango dissoc inh: 6%; GLA inh pH 4.5: -6; miR-21 FLuc: -11%; Rango-impB inh: 2.6%

What do the screens show for `COc1cccc(CNC(=O)C2CCN(S(=O)(=O)c3cccc4cccnc34)CC2)c1`?
Rango dissoc inh: 29%; GLA inh pH 4.5: 5; miR-21 FLuc: -13%; Rango-impB inh: -0.4%

What do the screens show for `CCc1ccccc1NC(=S)NC1CC2CCC(C1)N2Cc1ccc(F)cc1` (centres undefined)?
Rango dissoc inh: 1%; GLA inh pH 4.5: 1; miR-21 FLuc: -1%; Rango-impB inh: -3.8%

What do the screens show for `O=C(C1CCC(=O)N(C2CC2)C1)N1CCN(c2ccccc2Cl)CC1` (centres undefined)?
Rango dissoc inh: -4%; miR-21 FLuc: -8%; Rango-impB inh: -3.3%

What do the screens show for `C=CCSc1nc2c(c(=O)[nH]1)C(c1ccccc1)C(C#N)=C(N)O2` (centres undefined)?
Rango dissoc inh: 9%; GLA inh pH 4.5: 1; miR-21 FLuc: 1%; Rango-impB inh: 1.1%

Results for CC1=NN(c2ccccc2)C(=O)/C1=C\C=C1\N(C)c2ccccc2C1(C)C ?
Rango dissoc inh: 4%; GLA inh pH 4.5: inconclusive; miR-21 FLuc: -8%; Rango-impB inh: 0.5%

What do the screens show for `CCOC(=O)CC1C(=O)NCCN1C(=O)COc1ccc(C(C)(C)C)cc1` (centres undefined)?
Rango dissoc inh: 3%; miR-21 FLuc: 0%; Rango-impB inh: 5.0%

Results for Cc1c(Cl)cccc1-n1c(SCC(=O)N2CCC(C(=O)O)CC2)nc2ccccc2c1=O ?
Rango dissoc inh: 0%; miR-21 FLuc: 8%; Rango-impB inh: -3.2%

Results for CC1CCCCN1C(=O)COc1ccccc1F (centres undefined) ?
Rango dissoc inh: 10%; GLA inh pH 4.5: 1; miR-21 FLuc: -4%; Rango-impB inh: -0.7%

How did CCOC(=O)N1CCC(NC(=O)c2ccc3c(c2)N=C(C)c2ccccc2S3)CC1 do in these assays?
Rango dissoc inh: 9%; miR-21 FLuc: 18%; Rango-impB inh: -0.9%

Results for COc1ccc(-c2nc3ccc(Cl)cn3c2NC2CCCCC2)cc1SC1CCCCC1 ?
Rango dissoc inh: inconclusive; Rango-impB inh: inconclusive
